SmPrx2 inh: inhibitors of Schistosoma mansoni peroxiredoxin 2; S. mansoni Prx2 activity coupled to TGR/GSH (TGR is thioredoxin glutathione reductase), NADPH fluorescence loss, qHTS; some inactives read as strong as hits; Potency, µM; 0.07% of 65,000 active; AID 448; active means full or partial inhibition curve with a strong effect at the top dose; inconclusive means weaker partial or single-point curve; inactive means no accepted curve; also: series up to 57 µM; many of its hits are not listed in these tables
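Activity is read as the drop in NADPH fluorescence (365/450 nm), recorded every 30 sec for 8 min after H2O2 addition. Prx2 is coupled to TGR-driven NADPH oxidation through glutathione, in phosphate buffer pH 7.4.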
Anthrax LT inh: anthrax lethal toxin internalization inhibition | Cells, anthrax lethal toxin internalization, FRET ratio (460/530) | Potency, µM (titrated, usually from 40 µM), for inactives: at the top dose activity change, negative = inhibition, most hits filed as inhibitors | 0.67% of 70,000 active | AID 912; active = well fitted falling ratio curve with the 530 nm signal flat; inconclusive = other ratio curves, or a change in one channel alone; inactive = flat curves in the ratio and both channels; the % refers to the ratio; also: % is scaled to controls: 0 for no effect and ±100 for the full control effect; nearly all actives have a fitted effect of over 50% in size; tested in ME-180 cells; beta-lactamase reporter
An asterisk follows results filed as active; ? = inconclusive; · = not tested or not shown; & = joins results of further samples; [ ] = dose if it differs, or a comment. Potency is read from the fitted curve at half-maximal effect. A portion of the library; the hit share may differ from the screen's.

1	CCOC(=O)CN1C(=O)C(O)(C2CCc3ccccc3C2=O)c2ccccc21 (stereo not given)
2	CC1CN(c2ncnc3c2oc2ccccc23)CC(C)O1 (stereo not given)
3	O=C(CSc1nnnn1-c1ccccc1)Nc1ccc(N2CCOCC2)c(Cl)c1
4	CSCC[C@H](NC(=O)OC(C)(C)C)c1nnc(SCC(=O)N(C)C)o1
5	CC(=O)c1cccc(NC(=O)NC2CCCCC2)c1
6	Cc1nn(-c2nnc(C)c(=O)[nH]2)c(C)c1SCC(=O)Nc1ccc(F)cc1
7	Cc1ccc(-n2c(SCc3ccc(C#N)cc3)nnc2-c2ccccn2)cc1
8	CCOC(=O)N1CCN(C(=O)c2ccc(-n3c(=S)[nH]c4ccccc4c3=O)cc2)CC1
assay / compound	1	2	3	4	5	6	7	8
SmPrx2 inh	>57	>57	>57	>57	·	>57	>57	>57
Anthrax LT inh	-8%	?	-1%	-5%	-10%	16%	?	23%

9	COc1cc(-c2cc(C(=O)O)c3c(OC)c(OC)c(OC)cc3n2)ccc1O
10	Cn1cnnc1SCCn1c(N2CCCCC2)nc2c1c(=O)[nH]c(=O)n2C
11	Nn1c(COc2cccc(Br)c2)nnc1SCC(=O)N1CCc2ccccc2C1
12	Cc1cccc(OCC(=O)Nc2ccc3c(c2)nc(CCN2CCN(C)CC2)n3C)c1
13	COc1ccc(Cl)cc1NC(=O)c1nc2nc(C)cc(C(F)F)n2n1
14	COC(=O)N1CCC2(CCN(Cc3ccccc3OC)CC2)CC1
15	O=C(CCNS(=O)(=O)c1cccs1)N1CCc2ccccc2C1
16	COC(=O)C1=C(C)N(Cc2ccccc2)C2=C3C(=O)CCCC3[C@@](O)(C(=O)OC)C(=O)N2C1c1ccccc1 (stereo not given in full)
assay / compound	9	10	11	12	13	14	15	16
SmPrx2 inh	>57	>57	>57	>57	>57	>57	>57	·
Anthrax LT inh	5%	-2%	?	-4%	-5%	2%	2%	4%&-20%[8 µM]

17	N#CC1=C(N)C(C#N)(C#N)C(c2cccnc2)C2CCCC=C12 (stereo not given)
18	CN(CCNC(=O)C1CC(=O)N(C2CCCC2)C1)Cc1ccccc1 (stereo not given)
19	COc1cccc(N=C2SC(C(=O)Nc3ccccc3F)CC(=O)N2C)c1 (stereo not given)
20	CC(C)C(OC(=O)CN1C(=O)COc2ccccc21)C(=O)NC1CCCC1 (stereo not given)
21	CCn1ccc(C(=O)Nc2ccc(Cl)cn2)n1
22	O=C(COc1ccc(S(=O)(=O)N2CCOCC2)cc1)Nc1ccc(Cl)c(C(F)(F)F)c1
23	O=C(c1ccccc1F)N1CCc2ccccc21
24	O=C(OCc1ccccc1)C1CCCN1C(=O)c1cccs1 (stereo not given)
assay / compound	17	18	19	20	21	22	23	24
SmPrx2 inh	>57	>57	·	>57	>57	>57	>57	>57
Anthrax LT inh	-13%	-16%	10%	-2%	-13%	-19%	-12%	?

25	CCN(CC)CCOC(=O)c1c(C)oc2ccc(O)cc12
26	Cc1cccc2cc(C(c3nnnn3CC3CCCO3)N3CCc4ccccc4C3)c(=O)[nH]c12 (stereo not given)
27	Cc1cc(NC(=O)c2ccc(NC(=O)C(C)Oc3ccccc3)cc2)no1 (stereo not given)
28	O=C(CSc1nc2nc[nH]c2c(=O)[nH]1)NC1CCCCC1
29	O=C(Nc1ccccc1)[C@@]12C[C@@H]1/C(=N/O)c1ccccc1O2
30	O=C(C1CCC1)N1CCc2cc(S(=O)(=O)Nc3ccc4c(c3)OCCO4)ccc21
31	CC(=O)Nc1nc2c(c3c1c(=O)oc1ccccc13)CC(C)CC2 (stereo not given)
32	O=C(CSCc1ccccc1)N1CCN(c2ccc(F)cc2)CC1
assay / compound	25	26	27	28	29	30	31	32
SmPrx2 inh	>57	>57	>57	>57	>57	>57	>57	>57
Anthrax LT inh	·	-1%	-6%	?	?	0%	-3%	-14%

33	N#CCCn1c(=O)c(-c2ccc(Cl)cc2)nc2cnc(Oc3ccccc3)nc21
34	Cc1ccc2nc(NCCCNC(=O)c3cnccn3)c(C#N)cc2c1
35	Cn1c(=O)oc2cc(S(=O)(=O)N3CCC(C(=O)NCC4COc5ccccc5O4)CC3)ccc21 (stereo not given)
36	Cc1ccc(S(=O)(=O)N2CCC(C(=O)Nc3nnc(C4CCCC4)s3)CC2)cc1
37	O=C1CCCC2=C1C(c1c(Cl)nc3sccn13)C1=C(CCCC1=O)N2
38	CCN(CC)C(=O)C1CC(=O)OC1(C)C (stereo not given)
39	CCCCOCCOCCOCCCC
40	O=C(NC1CCCC1)C(c1cccs1)N(Cc1ccco1)C(=O)c1csnn1 (stereo not given)
assay / compound	33	34	35	36	37	38	39	40
SmPrx2 inh	>57	>57	>57	>57	>57	>57	·	>57
Anthrax LT inh	?	5%	-12%	-21%	-7%	-13%	0%	-10%

41	CCCCN(CC)CCCNC(=O)Cn1nc(Cc2ccncc2)c2ccccc2c1=O
42	c1ccc(C(c2ccccc2)N2CCCC3(CCNCC3)C2)cc1
43	Cc1oc(-c2ccc(Cl)cc2)nc1CN1CCCC(C(=O)NCCCN2CCOCC2)C1 (stereo not given)
44	CCOC(=O)c1ccc(NC(=O)Cn2nnc(-c3ccc(C)cc3)n2)cc1
45	Cc1nc(Nc2nc3ccccc3o2)nc2c1CCC2
46	CCCN1C(=O)c2ccc(C(=O)Nc3nccs3)cc2C1=O
47	COC(=O)c1ccccc1N=C(SC)N(C)C
48	COc1ccc(C(=O)CSc2n[nH]c(-c3ccco3)n2)cc1
assay / compound	41	42	43	44	45	46	47	48
SmPrx2 inh	>57	>57	>57	>57	>57	>57	>57	·
Anthrax LT inh	-3%	-27%	?	7%	-2%	·	-25%	0%

49	O=C(NCCN1CCCCC1)c1cc2ccccc2[nH]1
50	CCC(=O)n1nc(-c2ccco2)nc1SCc1ccccc1
51	CC(C)(C)n1nnnc1CN1CCN(C2CCCC2)CC1
52	Cn1c(C(=O)N2CCN(Cc3ccc4c(c3)OCO4)CC2)cc2c(=O)n(C)c3ccccc3c21
53	O=C(CCN1C(=O)c2ccccc2C1=O)Nc1ccc(F)cc1
54	CN(C)c1ccnc(NCc2ccccc2)c1C#N
55	O=C(Nc1nnc(COc2ccc(Cl)cc2)s1)C1CCCO1 (stereo not given)
56	COC(=O)Nc1sc2c(c1C(=O)NCc1ccco1)CCCC2
assay / compound	49	50	51	52	53	54	55	56
SmPrx2 inh	>57	>57	>57	>57	·	>57	>57	>57
Anthrax LT inh	-6%	-6%	-10%	?	1%	-4%	-3%	-9%

57	O=C1CCCc2c1cc(C(=O)NCCCN1CCOCC1)c(=O)n2-c1ccc(Cl)cc1
58	O=C(CSc1ncc(-c2ccccc2)nn1)NCc1ccco1
59	CCC1(CC)NC(=O)NC1=O
60	COC(=O)[C@H](C)NC(=O)Nc1ccc(OC)cc1OC
61	CN1CCN(C(=O)CC23CC4CC(CC(C4)C2)C3)CC1
62	Cc1cccc(Cn2cnc3c(nnn3Cc3ccc(F)cc3)c2=O)c1
63	CCOC(=O)c1[nH]c(C)c(C(=O)NC(C)CC)c1C (stereo not given)
64	CCOC(=O)Cn1cnc2c(nnn2Cc2ccc(Cl)cc2)c1=O
assay / compound	57	58	59	60	61	62	63	64
SmPrx2 inh	>57	>57	>57	>57	>57	>57	>57	>57
Anthrax LT inh	17%	-15%	1%	6%	-8%	-7%	-9%	1%

65	Brc1ccc(CSc2nnc(-c3cnccn3)n2Cc2ccco2)cc1
66	CC(Oc1ccc(-c2ccccc2)cc1)C(=O)N1CCOCC1 (stereo not given)
67	COC(=O)c1[nH]c2cccc(C)c2c1NC(=O)CN1CCN(C(=O)c2ccco2)CC1
68	Cc1ccc(OCC(=O)Nc2ccc(N(C)C)cc2)cc1
69	O=C(NC1CCCCCC1)C1c2ccccc2C(=O)N1C1CC1 (stereo not given)
70	CC(C)[C@H](NC(=O)Nc1ccc(S(N)(=O)=O)cc1)C(=O)O
71	COc1ccc(C(=O)c2ccccc2O)c(O)c1
72	O=C(Nc1ccc(CN2CCOCC2)cc1)c1cc2ccccn2n1
assay / compound	65	66	67	68	69	70	71	72
SmPrx2 inh	>57	>57	>57	>57	>57	>57	>57	>57
Anthrax LT inh	6%	-11%	1%	5%	9%	7%	-10%[3.58 µM]	-12%

Next part:
Each structure is followed by: SmPrx2 inh	Anthrax LT inh
73	Cc1nnc(SCC(=O)Nc2ccc(N3CCOCC3)cc2)o1
 : >57	-6%
74	CCOc1ccc(Cl)cc1S(=O)(=O)n1nnc2ccccc21
 : >57	11%
75	C=CCn1c(N)c(C(=O)NCc2cccnc2)sc1=S
 : ·	-8%
76	CNc1nc(Oc2ccccc2C(=O)OC)nc(SC)n1
 : >57	?
77	C[N+]1([O-])[C@@H]2CC[C@H]1CC(OC(=O)[C@@H](CO)c1ccccc1)C2 (stereo not given in full)
 : >57	-11%[3.58 µM]
78	CCOC(=O)c1ccc(NC(=O)c2ccc(CN3CCOCC3)cc2)cc1
 : >57	6%
79	CCc1ccccc1NC(=O)CSC1=C(C#N)C(c2ccc3c(c2)OCO3)C2=C(CCCC2=O)N1 (stereo not given)
 : >57	?
80	O=C(CSCc1c(F)cccc1Cl)NCc1ccco1
 : >57	-9%
81	Cc1cc(C)c2cc(C#N)c(N3CCCC3)nc2c1
 : >57	3%
82	CCCCCOc1ccc(/C=c2\sc3ncnn3c2=O)cc1
 : >57	4%
83	O=S(=O)(CCOc1ccccc1)c1nc2ccccc2[nH]1
 : >57	0%
84	COc1ccc(NC(=O)N2CC3(CCN(C(=O)c4ccncc4)CC3)C2)cc1
 : >57	9%
85	CCOc1cc(C2C(C#N)=C(N)OC(C)=C2C(C)=O)cc(Br)c1O (stereo not given)
 : >57	-3%
86	Cc1ccc(N=Nc2c(O)c(S(=O)(=O)O)cc3cc(S(=O)(=O)O)ccc23)c(C)c1
 : >57	0%[8 µM]
87	CNC(=O)CSCc1c(Cl)cccc1Cl
 : >57	-8%

More entries follow:
Each structure is followed by: SmPrx2 inh	Anthrax LT inh
88	Brc1cc(Br)c(Oc2cc(Br)c(Br)cc2Br)cc1Br
 : ·	1µM*
89	Cc1cc(N2C(=O)C(O)=C(C(=O)c3ccc(C)o3)C2c2cccs2)no1 (stereo not given)
 : >57	?
90	O=C(CN1CCCC1)Nc1ccc(-c2nc3cc(NC(=O)CN4CCCC4)ccc3o2)cc1
 : >57	?
91	COP(=O)(/C=C/c1ccccc1)C(O)c1ccc(F)cc1 (stereo not given)
 : >57	-26%
92	CCNc1cc2oc(=O)c(CN3CCOCC3)c(C)c2cc1C
 : ·	?
93	Cc1ccccc1NS(=O)(=O)c1ccc(OCC(=O)NCc2ccco2)cc1
 : >57	-11%
94	O=C(O)CSc1nnc(-c2ccco2)o1
 : >57	-2%
95	CCN1CCN(C(=O)c2cn(CC)c3ccc(S(=O)(=O)N(C)C)cc3c2=O)CC1
 : >57	-8%
96	COc1ccc(OC)c(C2C3=C(CCCC3=O)Nc3nc4ccccc4n32)c1 (stereo not given)
 : >57	?
97	CC(OC(=O)c1ccncc1)C(=O)Nc1cccc(Cl)c1 (stereo not given)
 : >57	-20%
98	CNc1oc(Cc2ccccc2)nc1S(=O)(=O)c1ccc(Cl)cc1
 : >57	7%
99	CCN1C(=O)N(CC)C(O)(c2ccccc2)C1(O)c1ccccc1 (stereo not given)
 : ·	-8%
100	CCOC(=O)C(/C(N)=N/C(=O)Nc1ccccc1)=C(\C)O
 : >57	2%
101	CCOc1ccccc1OCCn1nnc2ccccc21
 : >57	-3%
102	CC1CCC2CC1C2(C)C (stereo not given)
 : ·	-9%

Carrying on.
Each structure is followed by: SmPrx2 inh	Anthrax LT inh
103	O=C(NCc1n[nH]c(=S)n1-c1ccccc1)c1ccco1
 : >57	26%
104	Cc1cc(=O)oc(C)c1C(=O)Nc1cnc2ccccc2c1
 : >57	·
105	O=c1cnc2cnc(Oc3ccccc3)nc2n1C1CC1
 : >57	11%
106	CCCCCn1c(SCc2ccncc2)nc2cc(C(=O)NCc3ccco3)ccc2c1=O
 : >57	?
107	CC1=C(C(=O)OCc2ccccc2)C(c2ccc([N+](=O)[O-])cc2)NC(=O)N1CCCCCC(=O)O (stereo not given)
 : >57	-1%
108	CN(C/C(O)=C(\C#N)c1ccccc1)C1CCCCC1
 : >57	-16%
109	COCCn1c(=S)[nH]c2ccc(N(C)C)cc2c1=O
 : >57	-1%
110	CCOC(=O)c1c(C)c(C(=O)NC2CCCCC2)c(C)n1CC
 : >57	-22%
111	Cc1cc(C)n2nc(SC(C)C(=O)NCc3ccco3)nc2n1 (stereo not given)
 : >57	?
112	CC(=O)Nc1cc(-c2ccccc2)ccc1O
 : >57	2%
113	O=C(CN1CCN(S(=O)(=O)/C=C/c2ccccc2)CC1)NC(=O)NCc1ccco1
 : >57	-13%
114	O=C1CCCc2c1cc(C(=O)NC1CCSC1=O)c(=O)n2-c1ccccc1 (stereo not given)
 : >57	-1%
115	CC(=C/C(=O)O)/C=C/c1cccs1
 : >57	-14%
116	O=C(NC1(C(F)(F)F)Oc2ccc(Cl)cc2O1)N1CCC2(CC1)OCCO2 (stereo not given)
 : >57	18%
117	O=C(O)c1cccc(S(=O)(=O)N2CCCC2)c1
 : >57	-1%

Source: PubChem BioAssay (National Center for Advancing Translational Sciences (NCATS))
